RanGTP-Impb inh: inhibitors of RanGTP-importin-beta interaction, primary screen, biochemical, FRET, CFP-Ran, YFP-importin-beta, homogeneous; Ran GTPase (GTP-bound) - importin-beta complex; cell-free CFP-Ran/YFP-importin-beta FRET ratio; inhibition, % (test concentration not listed); actives 1.1% (n = 300,000); AID 2216, 2009;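 active means most replicates above 15%; inconclusive means exactly half above 15%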;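 further: 0% = DMSO wells and 100% = Ran loaded with GDP instead of GTP; wells of about 40 µL received 100 nL stock; the first replicate is given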
T cruzi inh: inhibitors of intracellular T. cruzi growth, primary screen, luminescence, NIH3T3 host cells | T. cruzi beta-gal in NIH3T3, 90 h | actives 1.4% (n = 300,000) | inhibition, % (concentration not given with the values) | AID 1885, 2009;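 active means mean inhibition across valid replicates above about 55%, limit read from the data; inconclusive means mean below that limit but half or more replicates reach it; inactive means mean below it, under half of replicates reach it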;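 further: signal also drops with host cell toxicity which is not excluded here; 0% = plate median of DMSO wells and 100% = zero luminescence signal; higher percent means less beta-gal luminescence so fewer parasites; stock transfer was 50 nL into about 50 µL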
MLL AF4-AF9 inh: inhibitors of AF4 peptide binding to AF9, primary screen, biochemical, AlphaScreen, biotin-AF4 peptide, FLAG-AF9, single point | actives 0.47% (n = 350,000) | inhibition, % at 10 µM;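 active means every replicate reaching a set inhibition limit, whatever the replicate mean, cut at about 25% in these data; inconclusive means mean inhibition reaches that limit but some replicates miss it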;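 further: 0% = plate neutral control median and 100% = total signal loss; the record names both 10 and 1 µM as test concentration; the first replicate is given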
Target sequence (P42568 whole entry, looked up): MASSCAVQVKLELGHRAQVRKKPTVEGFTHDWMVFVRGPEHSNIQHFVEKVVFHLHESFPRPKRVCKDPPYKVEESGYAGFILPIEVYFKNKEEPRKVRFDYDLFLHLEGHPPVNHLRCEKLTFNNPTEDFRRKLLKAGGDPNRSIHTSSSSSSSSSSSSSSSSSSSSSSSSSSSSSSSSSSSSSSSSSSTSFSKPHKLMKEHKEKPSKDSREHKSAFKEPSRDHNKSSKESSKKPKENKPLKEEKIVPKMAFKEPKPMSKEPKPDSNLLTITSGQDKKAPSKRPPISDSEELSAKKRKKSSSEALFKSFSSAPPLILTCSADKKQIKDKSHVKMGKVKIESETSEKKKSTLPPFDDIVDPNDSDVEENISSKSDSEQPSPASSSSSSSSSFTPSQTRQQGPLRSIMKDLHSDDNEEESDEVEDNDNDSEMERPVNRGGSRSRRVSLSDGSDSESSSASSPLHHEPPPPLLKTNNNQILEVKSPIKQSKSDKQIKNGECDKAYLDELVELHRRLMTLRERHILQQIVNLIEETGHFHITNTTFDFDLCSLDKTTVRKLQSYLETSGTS
Ecoli rRNA inh: reduced GFP signal of wild-type E. coli, primary screen, bacterial rRNA inhibitor project, GFP/RFP fluorescence, OD600, single point | actives 1.6% (n = 350,000) | GFP signal change (wild-type ribosome), % (no concentration beside the values) | E. coli WT GFP vs humanized-ribosome RFP mutants, 24 h; hits give low values; DMSO median 0, no signal -100 | AID 720706, 2013;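 active means significant combined selectivity score with lowered wild-type GFP, culture density cut under 30%, mutant RFP and density less affected; inactive means any of these conditions unmet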; further: one replicate is shown; some compounds called inactive have numbers as strong as hits
Beta apoptosis: inhibitors of cytokine-induced beta cell apoptosis, primary screen, luminescence; protection from apoptosis, % (concentration not given with the values); actives 0.8% (n = 300,000); INS-1E cytokine-induced death, ATP luminescence, 48 h; percent of positive-control rescue, neutral wells zero; AID 435005, 2010;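 active means all replicates at 75% or more, or half of them and the mean; inconclusive means half reach 75% but not the mean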;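 further: 0% = cytokine-treated negative control wells and 100% = positive control rescue; higher means more ATP so stronger rescue from cytokine killing; wells of about 40 µL received 100 nL stock; the first replicate is given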
Calb FLC: C. albicans growth inhibition with fluconazole, primary screen, CaCi-2 strain, Alamar Blue fluorescence; C. albicans CaCi-2 (fluconazole-resistant clinical isolate) + fluconazole, 48 h; growth inhibition, % (no concentration beside the values); actives 0.57% (n = 300,000);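 active means most replicates above 75%; inconclusive means exactly half above 75%; inactive means most below 75%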;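 further: all wells also contain fluconazole at 8 µg/ml as a sub-toxic cotreatment; 0% = median of DMSO wells and 100% = median of geldanamycin control wells; wells of about 8 µL received 7.5 nL stock; the first replicate is given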
ALR inh: inhibitors of human ALR sulfhydryl oxidase, primary screen, biochemical, H2O2 detection, HRP-luminol luminescence, single point. purified ALR, DTT oxidation. inhibition, % (no concentration beside the values). FAD-linked sulfhydryl oxidase ALR (Homo sapiens), P55789. actives 3.8% (n = 290,000). AID 485317, 2010;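 active means mean and each replicate at 75% or more; inconclusive means only one of the two met; inactive means neither met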;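 further: stock transfer was 7.5 nL into about 7.5 µL; 0% = neutral wells and 100% = wells with inactivated enzyme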
Target sequence (P55789 whole entry, looked up): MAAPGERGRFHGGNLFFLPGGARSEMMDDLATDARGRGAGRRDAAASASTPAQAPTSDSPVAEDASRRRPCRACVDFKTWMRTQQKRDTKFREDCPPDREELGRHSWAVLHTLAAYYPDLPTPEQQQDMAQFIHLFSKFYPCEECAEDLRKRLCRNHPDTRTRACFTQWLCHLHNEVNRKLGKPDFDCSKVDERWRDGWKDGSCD
FGF22 binding: binders of human FGF22 protein, primary screen, FGF22 synaptogenesis inhibitor project, biophysical, thermal shift, single point; recombinant FGF22 thermal shift, SYPRO orange fluorescence; percent of sucrose octasulfate shift, DMSO zero; calls only at 9.99 µM; actives 1.5% (n = 340,000); AID 651658, 2012;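 active means melting point raised past a set limit in the mean and every replicate; inconclusive means no clear call; three in four hits are not shown here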
Target sequence (Q9HCT0 whole entry, looked up): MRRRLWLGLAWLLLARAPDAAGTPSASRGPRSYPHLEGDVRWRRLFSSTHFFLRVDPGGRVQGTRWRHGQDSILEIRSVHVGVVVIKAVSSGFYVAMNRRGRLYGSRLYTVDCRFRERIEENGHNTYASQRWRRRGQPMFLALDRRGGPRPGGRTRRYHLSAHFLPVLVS
Ecoli rRNA inh OD600: further read-out of Ecoli rRNA inh, marked with its call; OD600 change, %; measured here: OD600 growth;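 optical density of the mix in the first replicate; 0 = DMSO median and -100 = no signal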
Ecoli rRNA inh RFP: second read-out of Ecoli rRNA inh, no call of its own (marks repeat the call); RFP signal change, %; measured here: RFP humanized mutant strains;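 first replicate; 0 = DMSO median and -100 = no signal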
Active calls of the source: *; i = inactive; ? = inconclusive; · = no result given; & = joins results of further samples. This is a subset, so the mix of outcomes need not match the whole.

SMILES	RanGTP-Impb inh	T cruzi inh	MLL AF4-AF9 inh	Ecoli rRNA inh	Ecoli rRNA inh OD600	Ecoli rRNA inh RFP	Beta apoptosis	Calb FLC	ALR inh	FGF22 binding
COc1ccc(/C=C\c2onc(C)c2S(=O)(=O)N2CCC(C(=O)NCc3ccco3)CC2)cc1	1.2	26	-30	8	14	-1.4	-3	1	1	i
O=C(Nc1ccccc1C(=O)NC(Cc1ccccc1)C(=O)O)c1ccccc1 (stereo not drawn)	-2.0	-13	-1.2	20	20	1.7	-7	-7	-15	i
CCOC(=O)c1c(NC(=O)c2c(Br)cnn2CC)sc(C)c1C	-0.1	3	·	·	·	·	-2	10	-7	·
Cc1nc2ccccc2cc1C(=O)N/N=C/c1ccccc1[N+](=O)[O-]	-13	-15	·	·	·	·	4	-9	-1	·
Cc1c(CC(=O)O)c(=O)oc2c(C)c3occ(-c4ccc(Br)cc4)c3cc12	28*	-3	1.0	-33	-44	-18	-2	43	7	i
O=C(CSc1nnc(NC(=O)c2cccc(F)c2)s1)NC1CCCC1	4.2	-10	-2.2	15	3	0.1	6	5	·	i
Cc1ccc(C)c(NC(=O)CN(C)C(=O)c2cc3ccccc3o2)c1	-1.6	10	-1.0	·	·	·	3	-13	-2	i
COc1cc(/C=C/C(=O)NCC(=O)N2CCC(N(C)CCN3CCOCC3)CC2)ccc1OC(C)C	1.8	26	0.7	8	3	2.9	-5	-10	-6	i
CCc1ccc(NC(=O)CSc2nnc(COc3ccc4c(c3)CCCC4)o2)cc1	-1.1	-10	·	·	·	·	-4	0	-23	·
CC(CNC(=O)c1ccc(Br)o1)NC(=O)c1ccc(Br)o1 (stereo not drawn)	-3.1	9	·	·	·	·	-2	-7	-2	·
Cc1ccc(C(=O)CNc2nc3c(c(=O)[nH]c(=O)n3C)n2Cc2ccccc2)cc1	-1.9	-14	·	·	·	·	-5	7	3	·
CCCNC(=O)CN(Cc1ccccc1F)S(=O)(=O)c1ccc(C)cc1	0.9	-1	·	-3	-3	5.1	3	5	-4	·
COCC1CCN(C(=O)CCc2nnc(C3(c4ccc(Cl)cc4)CCC3)o2)C1 (stereo not drawn)	-1.7	2	1.4	1	3	-0.4	·	11	-8	i
CC(C)(C)N1CC(OC(N)=O)C1	-1.1	-23	-0.7	14	10	1.3	-1	10	·	i
Cc1ccc(Oc2nc(C(F)(F)F)nc3ccccc23)cc1	0.6	1	·	·	·	·	4	10	-6	·
Cc1nc(-c2ccc(S(=O)(=O)N3CCN(C(c4ccccc4)c4ccccc4)CC3)s2)cs1	10.0	43	4.3	·	·	·	-2	3	·	i
Cc1ccc(/C=N/NC(=O)c2cccc(S(=O)(=O)N3CCOCC3)c2)o1	1.3	2	-1.2	11	14	-1.2	-3	3	5	i
CC(C)(C)N(NS(=O)(=O)c1ccc(F)cc1)c1ccccc1	4.9	-12	-1.5	13	5	3.4	-7	3	?	i
O=C(Cc1ccccc1F)NC1CCSc2ccccc21 (stereo not drawn)	2.1	2	-6.8	7	8	-0.3	·	8	-4	i
O=C(Nc1ccccc1Cl)C(=O)c1cn(CC(=O)N2CCOCC2)c2ccccc12	1.1	-15	-1.4	17	4	0.2	3	-10	-8	i
COc1ccc(/C=N\NC(=O)CCc2c(C)n[nH]c2C)c(OC)c1OC	2.4	-19	-1.7	9	1	2.3	-1	-7	0	i
CC(C)Cc1cc(C(=O)Nc2sc3c(c2C#N)CCC3)no1	14	8	2.3	-6	-43	-5.5	5	-5	10	i
COc1cc2c3c(c1)C1(C(=O)N3C(C)(C)C=C2C)C(C#N)=C(N)Oc2cc(C)oc(=O)c21 (stereo not drawn)	0.8	44	-5.1	·	·	·	·	1	·	·
CCCC(=O)Nc1ccccc1NC(=O)c1cc(OC)c(OC)c(OC)c1	4.6	-4	·	·	·	·	-3	?	1	·
CCn1c(=O)c2cc(C(=O)N(C)CC(OC)OC)sc2c2ccccc21	-1.3	13	-1.9	-1	-8	-0.8	3	2	-9	i
CCOC(=O)c1nn(-c2ccccc2F)c(C)c1C(C)=O	2.3	-3	·	·	·	·	-3	6	12	·
CC1(C)CC(NC(=O)c2ccccc2Cl)CC(C)(C)N1	-2.0	-7	·	·	·	·	-4	10	-7	·
CC(C)c1nccn1CCC(=O)O	0.9	-16	5.9	7	9	-5.2	-3	3	-1	i
O=C1c2ccccc2C(=O)N1c1ncn[nH]1	-0.6	4	1.8	20	-5	-2.0	-12	1	-20	i
Cc1cc(Nc2cccc(Cl)n2)n(-c2ccccc2)n1	1.1	7	4.1	-4	0	-4.4	·	-15	8	i
O=C(NCc1ccccc1)C(c1ccccc1)N(C(=O)c1csnn1)C1CCCC1 (stereo not drawn)	0.9	-6	3.0	4	-1	0.5	0	-11	-4	i
CSc1ccc(S(=O)(=O)NCC(=O)OCC(=O)N(C)Cc2ccccc2)cc1[N+](=O)[O-]	·	-6	-10.0	-4	1	-4.4	0	2	-39	i
COc1ccc(OC)c(NC(=O)C2CC(=O)N(c3ccccc3)C2)c1 (stereo not drawn)	-3.7	-10	·	·	·	·	-6	0	-5	·
Nc1ccccc1SCc1csc(-c2ccc(Cl)cc2)n1	-0.1	-7	-1.7	-2	-29	-0.7	-9	-3	98*	i
C/C(=N\NC(=S)NCCc1ccccc1)c1cccs1	0.7	-4	·	·	·	·	0	-5	-1	·
Cc1cccc(NC(=S)N(CCN2CCOCC2)Cc2cc3cc4c(cc3[nH]c2=O)OCO4)c1	-6.5	0	0.9	-7	-8	-1.4	10	5	-7	i
COc1ccc(C(=O)Cc2ccc(F)cc2)c(OC)c1	-3.4	-9	1.6	·	·	·	-7	-1	-6	i
CCCOC(=O)c1c(NC(=O)C2C3C=CC(C3)C2C(=O)O)sc2c1CCC(C)C2 (stereo not drawn)	-3.9	6	-1.2	-4	-10	-6.6	1	52	?	i
COc1ccccc1NC(=O)CSc1nnc(COc2ccc(Cl)cc2)n1Cc1ccco1	-1.6	16	·	·	·	·	-3	9	12	·
CCS(=O)(=O)C1=NN2C(=N)/C(=C\c3ccc(OS(=O)(=O)c4ccccc4)cc3)C(=O)N=C2S1	6.9	-6	·	·	·	·	2	-13	?	·
C=C(C)C(=O)Nc1cccc(C2=NOC3(C2)C[C@H](C(N)=O)N(C(=O)CC#N)C3)c1 (stereo partly drawn)	-1.5	-1	·	·	·	·	-6	4	-5	·
CC1(OC(=O)CCc2ccccc2)C(=O)C=C2C=C(c3ccc(C#N)cc3)N(CC3CC3)C=C2C1=O (stereo not drawn)	3.9	0	4.0	17	13	1.5	4	30	-9	i
COc1ccc(-c2cc(-c3cccs3)nc(OC)c2C#N)cc1OC	5.2	16	1.5	·	·	·	-3	4	-1	i
COc1ccc(C(=O)NC2CCN(CC(=O)NC3CCCCC3)CC2)cc1	-8.3	13	-18	0	-1	1.1	-4	-3	-16	i
CCCOc1ccc(N2C(=O)CC(NCc3cccnc3)C2=O)cc1 (stereo not drawn)	1.7	-17	-1.0	1	4	1.1	-11	-1	2	i
Cc1nn(CC(=O)Nc2ccc(C(=O)N3CCCCC3)cc2)c(=O)c2ccccc12	-0.3	5	·	·	·	·	-5	-7	-8	·
Cc1cccc(-n2ncc3c2CCCC3NC(=O)CCN2CCCCO2)c1C (stereo not drawn)	-6.7	7	-0.5	4	5	-0.2	·	-9	3	i
CCN1CCN(C(=O)c2c(-c3c(Cl)cccc3Cl)noc2C)CC1	1.8	-4	-6.5	2	14	-1.3	-1	1	-12	i
C[C@H](CO)N1C[C@H](C)[C@@H](CN(C)Cc2ccc(-c3ccccc3)cc2)Oc2c(NS(=O)(=O)c3cn(C)cn3)cccc2C1=O	·	·	15	-1&-3	4&-2	-1.6&2.3	-1	·	-6	i
Nc1nc(COc2ccc(Cl)cc2)cs1	4.8	-3	2.6	-3	-8	-6.9	-6	-38	0	·
Cc1ccc2nc(N/C(N)=N/S(=O)(=O)c3ccc([N+](=O)[O-])cc3)nc(C)c2c1	-0.5	58*	·	·	·	·	5	-3	-3	·
O=C(NCC1CC1)NC(=O)c1c(F)cccc1Cl	?	-6	-5.2	-4	-4	-1.6	-7	-4	0	i
O=C(CSc1c[nH]c2ccccc12)N1CCOCC1	1.1	-17	·	·	·	·	-1	0	7	·
COCCCN(C(=O)C(C)Oc1ccc(Br)cc1)c1c(N)n(Cc2ccccc2)c(=O)[nH]c1=O (stereo not drawn)	-4.7	-3	-0.4	12	8	0.4	-2	2	-56	·
CCCOc1ccc(-c2c(C(=O)N/N=C(\C)c3ccco3)nnn2-c2nonc2N)cc1	2.8	19	-1.1	-3	5	6.2	5	0	-1	i
O=C(NCc1ccccc1)C1CCCN(S(=O)(=O)c2ccc(-n3cnnn3)cc2)C1 (stereo not drawn)	3.0	2	-0.4	6	12	-2.8	-2	-4	-4	i
O=C(Oc1ccc2ccc(OC(=O)N3CCCCCC3)cc2c1)N1CCCCCC1	0.2	23	2.0	7	3	-10	15	7	-15	i
CCOCCCNC(=O)c1c(N)n(-c2ccc(S(N)(=O)=O)cc2)c2nc3ccccc3nc12	?	5	·	·	·	·	7	-14	·	·
FC(F)(F)c1cc(-c2ccco2)nc(NCCc2ccccc2)n1	?	12	·	·	·	·	-3	-22	16	·
CN(Cc1nc(CCc2ccccc2)no1)Cc1cccs1	1.3	-5	-0.4	-3	5	0.3	-2	5	0	i
Further entries follow.
SMILES	RanGTP-Impb inh	T cruzi inh	MLL AF4-AF9 inh	Ecoli rRNA inh	Ecoli rRNA inh OD600	Ecoli rRNA inh RFP	Beta apoptosis	Calb FLC	ALR inh	FGF22 binding
C[C@H](CO)N1C[C@H](C)[C@@H](CN(C)S(=O)(=O)c2ccccc2)Oc2ccc(NC(=O)Nc3ccc(C(F)(F)F)cc3)cc2C1=O	·	·	1.9&-6.5	-3&5	-10&7	-1.2&-2.9	-6	·	-1	i
CC1(C)CC2CC(C)(CN2C(=S)NC(=O)c2ccccc2Cl)C1 (stereo not drawn)	6.4	-16	7.5	-33	-35	-7.7	1	29	-3	i
COc1cc(CN2CCN(Cc3ccc(C)cc3)CC2)c([N+](=O)[O-])cc1OC	-4.4	23	4.2	·	·	·	-5	-20	-11	i
COCCCN1C(=O)c2ccc(C(=O)OCC(=O)N3CCN(c4ccccc4)CC3)cc2C1=O	-2.2	5	0.5	4	2	-2.6	-1	-9	33	·
CCOc1ccc(-c2nnc(SCC(=O)N3CCOCC3)o2)cc1	2.2	3	·	·	·	·	-9	7	-4	·
